Assay outcomes: PubChem, ICCB-Longwood Screening Facility, Harvard Medical School
PV pol inh – poliovirus RdRp elongation inhibitors, primary screen, biochemical, fluorescence polarization, total intensity; poliovirus polymerase elongation; stronger effect = lower value; Genome polyprotein (Poliovirus type 1 (strain Mahoney)), P03300; % elongation, % (compound at 16.7 µg/mL); actives 0.66% (n = 150,000); in the data active means % elongation below about 90%; further: some results filed as inactive read as strong as hits
Target sequence (P03300 1749-2209 limits assumed): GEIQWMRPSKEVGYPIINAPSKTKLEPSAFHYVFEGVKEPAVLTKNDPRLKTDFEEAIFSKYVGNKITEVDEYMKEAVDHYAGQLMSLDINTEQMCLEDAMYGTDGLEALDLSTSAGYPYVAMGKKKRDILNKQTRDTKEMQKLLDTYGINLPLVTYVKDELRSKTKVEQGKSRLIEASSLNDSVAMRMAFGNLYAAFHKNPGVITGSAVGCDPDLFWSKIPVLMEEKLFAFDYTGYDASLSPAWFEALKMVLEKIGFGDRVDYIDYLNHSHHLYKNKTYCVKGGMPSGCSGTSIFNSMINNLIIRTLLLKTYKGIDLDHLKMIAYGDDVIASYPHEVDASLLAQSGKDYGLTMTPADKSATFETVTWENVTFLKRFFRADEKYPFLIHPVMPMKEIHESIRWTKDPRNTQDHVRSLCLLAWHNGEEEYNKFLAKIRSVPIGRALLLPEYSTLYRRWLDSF
MbtI inh – MbtI salicylate synthase inhibitors, primary screen, biochemical, fluorescence intensity; P9WFX0; purified MbtI enzyme, fluorescence intensity read-out; inhibition, %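 (about 17 µg/mL by stock and volumes)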; actives 0.89% (n = 100,000); AID 493033, 2011;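 active means above 50% in both replicates, above 80% if mildly self-fluorescent; inactive means the rest, strongly fluorescent compounds included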;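 further: 0% = mean of negative and 100% = mean of positive controls; one replicate is shown; some compounds called inactive have numbers as strong as hits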
Target sequence (P9WFX0 whole entry, looked up): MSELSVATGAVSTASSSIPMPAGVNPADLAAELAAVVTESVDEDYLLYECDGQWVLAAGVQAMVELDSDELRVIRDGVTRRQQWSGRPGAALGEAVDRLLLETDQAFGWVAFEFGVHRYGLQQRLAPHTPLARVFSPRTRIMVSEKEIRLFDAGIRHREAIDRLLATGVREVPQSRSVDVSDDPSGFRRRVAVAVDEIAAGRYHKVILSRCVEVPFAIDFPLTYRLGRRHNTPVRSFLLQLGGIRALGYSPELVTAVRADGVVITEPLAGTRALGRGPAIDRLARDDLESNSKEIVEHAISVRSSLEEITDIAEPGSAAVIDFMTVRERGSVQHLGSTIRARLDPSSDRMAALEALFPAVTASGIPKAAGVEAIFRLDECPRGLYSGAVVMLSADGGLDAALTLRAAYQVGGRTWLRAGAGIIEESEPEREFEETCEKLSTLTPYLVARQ
Mtb MenB inh – M. tuberculosis MenB inhibitors, primary screen, biochemical, absorbance | 1,4-dihydroxy-2-naphthoyl-CoA synthase (Mycobacterium tuberculosis (strain ATCC 25618 / … | MenB enzyme assay, absorbance read-out; some hits fall short of the stated cut | inhibition, %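 (about 12 µg/mL by stock and volumes)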 | actives 0.43% (n = 100,000) | AID 540299, 2011;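 active means mean of two replicates above 30%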;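 further: 0% = no compound and 100% = wells with inactive enzyme; the first replicate is given; strong numbers were not always called active; inactives centre near -10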
PV pol inh intensity – also measured in PV pol inh; calls as there; % elongation; measured here: total intensity read-out; formula for this scale not given here;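 total fluorescence in place of polarization; lower means less elongation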
* marks the source's active call; other numbers are inactive results; i = inactive; x = no result given; & = joins results of further samples.

Start of the data: the first 19 records, ahead of the listing:
No.	molecule	PV pol inh	PV pol inh intensity	MbtI inh	Mtb MenB inh
1	COc1ccc2[nH]c3c(c2c1)CCNC3CC(=O)O (configuration not stated)	102	104	-12	5
2	O=S(=O)(Cc1ccccc1)Nc1noc2ccccc12	102	104	-1	-17
3	CCOC(=O)/C(C#N)=N\Nc1cc(C(N)=O)cc(C(N)=O)c1	98	103	-3	-137
4	CCCc1nc2nc(C)cc(NCCN3CCN(c4cccc(Cl)c4)CC3)n2n1	102	95	11	15
5	COc1ccc(CN(C)C(=O)c2cccc(S(=O)(=O)N3CCOCC3)c2)cc1F	97	102	4	-6
6	CN1CCN(/N=C/C2=C(O)CC(c3ccccc3)CC2=O)CC1 (configuration not stated)	101	105	13	-23
7	CC1(C)C(=O)Nc2ccccc2N1C(=O)CSc1nc2ccccc2[nH]1	101	109	2	-4
8	COc1cc(C(=O)Nc2cc(C)c3c(=O)oc4ccccc4c3n2)cc(OC)c1OC	101	100	11	3
9	ClC(=Nc1ccccc1)c1ccccc1	104	126	x	-1
10	Cn1c(Cc2nnc(Nc3ccc(S(=O)(=O)N4CCOCC4)cc3)s2)nc2ccccc21	99	102	-11	-38
11	COc1ccc(CCNC(=O)C2CC(=O)N(C3CCCC3)C2)cc1OC (configuration not stated)	100	100	-15	-7
12	CCNC(=S)N1CCC(NC(=O)C23CC4CC(CC(C4)C2)C3)CC1	102	104	-5	-76
13	CC(=O)Nc1ccc(-n2c(C)nc(=O)c(-c3ccccc3)c2C)cc1	99	98	1	-6
14	COc1cccc(-c2[nH]nc(SC)c2C#N)c1	99	95	-20	-6
15	CCCc1nc2ccccc2n1C(=S)SC	101	103	-2	x
16	O=C(CCCOc1ccccc1)Nc1ncn[nH]1	102	103	0	-39
17	Cn1c(=O)c(C(=O)NC2CCCCCC2)c(O)c2ccccc21	102	101	-8	-22
18	COc1cccc(-c2cc(=O)c3ccccc3o2)c1N	99&98	104&102	7	-6
19	CCC(C)NS(=O)(=O)c1ccc(-n2cccn2)cc1 (configuration not stated)	104	98	3	2

This part in full, repeating the preview:
No.	molecule	PV pol inh	PV pol inh intensity	MbtI inh	Mtb MenB inh
1	COc1ccc2[nH]c3c(c2c1)CCNC3CC(=O)O (configuration not stated)	102	104	-12	5
2	O=S(=O)(Cc1ccccc1)Nc1noc2ccccc12	102	104	-1	-17
3	CCOC(=O)/C(C#N)=N\Nc1cc(C(N)=O)cc(C(N)=O)c1	98	103	-3	-137
4	CCCc1nc2nc(C)cc(NCCN3CCN(c4cccc(Cl)c4)CC3)n2n1	102	95	11	15
5	COc1ccc(CN(C)C(=O)c2cccc(S(=O)(=O)N3CCOCC3)c2)cc1F	97	102	4	-6
6	CN1CCN(/N=C/C2=C(O)CC(c3ccccc3)CC2=O)CC1 (configuration not stated)	101	105	13	-23
7	CC1(C)C(=O)Nc2ccccc2N1C(=O)CSc1nc2ccccc2[nH]1	101	109	2	-4
8	COc1cc(C(=O)Nc2cc(C)c3c(=O)oc4ccccc4c3n2)cc(OC)c1OC	101	100	11	3
9	ClC(=Nc1ccccc1)c1ccccc1	104	126	x	-1
10	Cn1c(Cc2nnc(Nc3ccc(S(=O)(=O)N4CCOCC4)cc3)s2)nc2ccccc21	99	102	-11	-38
11	COc1ccc(CCNC(=O)C2CC(=O)N(C3CCCC3)C2)cc1OC (configuration not stated)	100	100	-15	-7
12	CCNC(=S)N1CCC(NC(=O)C23CC4CC(CC(C4)C2)C3)CC1	102	104	-5	-76
13	CC(=O)Nc1ccc(-n2c(C)nc(=O)c(-c3ccccc3)c2C)cc1	99	98	1	-6
14	COc1cccc(-c2[nH]nc(SC)c2C#N)c1	99	95	-20	-6
15	CCCc1nc2ccccc2n1C(=S)SC	101	103	-2	x
16	O=C(CCCOc1ccccc1)Nc1ncn[nH]1	102	103	0	-39
17	Cn1c(=O)c(C(=O)NC2CCCCCC2)c(O)c2ccccc21	102	101	-8	-22
18	COc1cccc(-c2cc(=O)c3ccccc3o2)c1N	99&98	104&102	7	-6
19	CCC(C)NS(=O)(=O)c1ccc(-n2cccn2)cc1 (configuration not stated)	104	98	3	2
20	Cc1ccc(-c2ccc(=O)n(CC(=O)NC3CCCC3)n2)cc1	100	104	41	2
21	O=C(CCCSc1ccccc1)Nc1ccc2c(c1)OCO2	100	103	0	-5
22	CCSC1=C(C#N)C(=O)NC(c2ccco2)S1 (configuration not stated)	98	99	18	-12
23	CSc1nc(Nc2ccc(F)cc2)c(C#N)c(-c2ccccc2)n1	100	100	-17	-16
24	O=c1cc(Cn2nnc(-c3ccccc3)n2)[nH]c(=O)[nH]1	103	110	-21	-33
25	COCC(C)n1c(COc2ccccc2F)nnc1SC/C(O)=C(\C(=O)OC)c1nc2ccccc2[nH]1 (configuration not stated)	99	110	-2	-38
26	N#Cc1cccc(NC(=O)C2CCCC2)c1	106	104	-5	9
27	COc1ccc(CC(=O)c2ccccc2C(=O)O)cc1	101	102	-4	x
28	O=c1oc(-c2cccs2)nc2c(Br)cc(Br)c(F)c12	94	98	1	-2
29	O=C(c1ccc2c(Cl)c3c(nc2c1)CCCC3)N1CCCCCC1	102	105	3	2
30	O=C(CCC1CCCCC1)NC1C=CS(=O)(=O)C1 (configuration not stated)	108	115	9	-13
31	CN1CCC2=C[C@@H](O)C3OC(=O)c4cc5c(cc4C3[C@H]21)OCO5 (some centres not stated)	100	102	166	-5
32	N#Cc1c(N)nc2c(c1-c1cccnc1)CCCCCC2	99	103	-35	-74
33	CCOc1cc(C)c(Cl)cc1S(=O)(=O)N1CCN(CC)CC1	102	102	0	6
34	c1ccc2nonc2c1	101	101	-2	-22
35	CC1=CCC2C(=O)N(c3cccc(C(=O)N(C)C4CCCCC4)c3)C(=O)C2C1 (configuration not stated)	101	101	4	2
36	O=C(/C=C/c1ccco1)NCc1ccco1	101	102	-3	-16
37	O=C(NCCCN1CCOCC1)c1ccc(CS(=O)(=O)Cc2ccc(Cl)cc2)o1	100	102	-14	-9
38	COc1ccc(S(=O)(=O)N2CCN(C(=O)Cc3ccsc3)CC2)cc1	106	109	-8	-14
39	CCCOC(=S)NC1OCC(OC(C)=O)C(OC(C)=O)C1OC(C)=O (configuration not stated)	105	106	x	-19
40	O=C(Nc1nc2ccccc2[nH]1)c1cc(F)c(F)cc1Cl	102	104	-4	x
41	Cn1ncc(Cl)c1C(=O)O	105	98	-5	-70
42	Cc1ccc(Nc2nc3nonc3nc2NC2C3CC4CC(C3)CC2C4)cc1C (configuration not stated)	101	103	-15	5
43	O=C(OCC(=O)N1CCCc2ccccc21)c1ccccc1Cl	102	107	3	-9
44	C[C@]12CCC(=O)C=C1CCC1C2[C@@H](O)C[C@@]2(C)C1CC[C@]2(O)C(=O)COC(=O)CCC(=O)O (some centres not stated)	99	100	-1	-5
45	O=C1N=C(N2CCOCC2)SC1=C1CCCCC1	101	105	-4	-20
46	O=C(O)CCn1cc(C=C2C(=O)NC(=O)NC2=O)c(-c2cc3ccccc3oc2=O)n1	100	107	108	-17
47	CC1=CC(C)(C)N(C(=O)CSc2ncccn2)c2ccc(C)cc21	103	102	5	-6
48	Cc1nn(-c2ccccc2)c(C)c1C(=O)NCC1(N(C)C)CCCCC1	100	98	-9	-7
49	CCCCOc1cccc(-c2nnc(NC(=O)OC)s2)c1	103	100	i	-38
50	CCCCN1COc2c(cc(Cl)c3cccnc23)C1	101	108	-119	-10
51	O=C(N/N=C/c1ccc(O)c(O)c1O)c1ccc(NS(=O)(=O)c2ccc(Br)cc2)cc1	105	109	81	-12
52	CCN1CCN(c2ccc(Cl)cc2NC(=O)C2CCCN2C(=O)c2cccs2)CC1 (configuration not stated)	105	117	-1	-24
53	CC(C)Cc1csc2ncnc(NCCO)c12	88*	60*	2	1
54	O=S(=O)(c1ccc(Cl)cc1)N1CN(C2CCCC2)c2nc3ccccc3nc21	x	x	-12	-10
55	O=C(CSc1n[nH]c(=O)n1Cc1ccco1)Nc1ccccc1Cl	103	100	1	-2
56	CC(C)C/C=C1\CC/C(=C\c2ccc(N(C)C)cc2)C1=O	71	197	-1	-59

Later entries
No.	molecule	PV pol inh	PV pol inh intensity	MbtI inh	Mtb MenB inh
57	Cc1ccc(-c2nn(CCC(=O)Nc3cccc(C(F)(F)F)c3)c(=O)c3ccccc23)cc1	102	108	-6	1
58	O=C1CC2CCC(CN1)N2CC(=O)Nc1ccccc1C(F)(F)F (configuration not stated)	101	102	4	-43
59	O=C(C1CCN(C2CC(=O)N(c3ccc4c(c3)OCO4)C2=O)CC1)N1CCCCCC1 (configuration not stated)	102	105	26	-7
60	c1nc(NCc2ccc3c(c2)OCO3)c2ccsc2n1	101	108	16	0
61	COc1ccc(N2CCC(CNS(=O)(=O)c3cccc(Cl)c3)C2)cc1 (configuration not stated)	101	102	0	-15
62	CCc1ccc(/C=C/C2=CC(C)(C)NC(=S)N2)cc1	100	98	-7	-65
63	O=C(CN1C(=O)c2cccnc2Sc2ccccc21)N1CCN(c2ccccc2F)CC1	101	103	-19	-23
64	Cc1nc2cc(COC(=O)c3ccccc3)ccc2s1	100	97	-2	x
65	Cc1ccc(C2=NS(=O)(=O)N(C)C(C(=O)N3CCCCC3C)=C2)cc1 (configuration not stated)	104	107	-3	-16
66	CCSc1nnc(CCNC(=O)NC2CCCCC2)n1C	103	101	2	-27
67	COc1ccc2c(c1)CCc1c(C(=O)N3CCCCC3)noc1-2	102	103	11	-15
68	Cc1sc(=[N+]2CCCCC2)sc1SCC(=O)O	100	106	x	-15
69	O=c1c2ccccc2c(/C=N/c2ccnn2Cc2ccco2)c(O)n1-c1cccc(C(F)(F)F)c1	107	101	-15	3
70	CC(C)Oc1ccc(C(=O)Nc2ccnn2C2CCCCC2)cc1	95	90	10	-29
71	CC(c1cccs1)n1nccc1NC(=O)c1cnc2ccccc2n1 (configuration not stated)	103	109	-2	-6
72	Cc1cc(C)c(CN(C)C)c(O)c1	99	96	-1	-5
73	CN(C(=O)COC(=O)Cc1ccc(Br)cc1)c1ccccc1	103	107	-12	x
74	CCOC(=O)c1c(N)n(CC(C)NC(=O)COc2ccccc2)c2nc3ccccc3nc12 (configuration not stated)	104	110	-6	-14
75	CCc1ccc(N2NC(=O)/C(=C/c3ccc4c(c3)n(C)c(=O)n4C)C2=O)cc1	103	108	0	-20
76	CC(C)N(C(=O)c1noc2c1CCc1sccc1-2)C1CCCCC1	103	99	13	-22
77	CCNc1c(NS(=O)(=O)c2cccc(C#N)c2)c(=O)oc2ccccc12	107	111	-1	-6
78	Cc1noc(C)c1CSc1nc2ccccc2c(=O)n1CCc1ccc(S(N)(=O)=O)cc1	106	100	-7	-22
79	Cc1ccc(S(=O)(=O)NCC(Sc2nnc(-c3cccs3)n2C2CC2)c2ccccc2)cc1 (configuration not stated)	107	104	-2	-30
80	Cc1cc(F)ccc1S(=O)(=O)Nc1ccccc1C(=O)Nc1cccnc1	100	103	-88	-9
81	O=C(C(Cc1ccccc1)NS(=O)(=O)c1cccc2nsnc12)N1CCC2(CC1)OCCO2 (configuration not stated)	102	100	13	7
82	C=CCOc1ccc(-c2ccc(C#N)cc2)cc1	97	104	48	-20
83	O=C(CN1C(=O)c2cccnc2Oc2ccc(Cl)cc21)NCc1ccccc1	104	103	-14	0
84	CCOC(=O)C1=C(N)N2C(=O)C(C)SC2=C(C(=O)OC)C1c1cccc(OC)c1 (configuration not stated)	103	93	x	-27
85	Cc1c(N=c2c(=O)c3ccccc3c2=O)c(=O)n(-c2ccccc2)n1C	63*	60*	9	-44
86	CCC(NC(=O)c1ccccc1NC(=O)C(C)(C)C)C(=O)N1CCCC1 (configuration not stated)	111	100	6	10
87	Fc1cc(F)cc(NC(=S)NCCN(C2CCCCC2)C2CCCC2)c1	100	96	-8	-20
88	COC(=O)[C@@H]1CC(O)CN1S(=O)(=O)c1ccc(C)cc1 (some centres not stated)	104	101	4	7
89	CCCc1c(C)nc(SCC(=O)C(C)(C)C)nc1OC(=O)N(C)C	109	121	-6	0
90	Cc1oc2c(CN3CCCCC3)c(O)ccc2c(=O)c1Oc1ccc(Cl)cc1	99	98	104	10
91	COC(=O)C(NS(=O)(=O)c1ccc(F)cc1)c1ccccc1 (configuration not stated)	100	102	-19	-9
92	COc1ccc(-c2c(C)oc3cc(OCC(O)CN4CCC(C(N)=O)CC4)ccc3c2=O)cc1 (configuration not stated)	98	107	-11	-10
93	NC(=O)Cn1nc(-c2ccc(Cl)cc2)ccc1=O	105	104	38	-9
94	O=C(Cn1c(=O)cnc2ccccc21)NCC(F)(F)F	100	106	1	17
95	O=C(O)c1ccc(-c2ccc(C(=O)O)s2)s1	99	100	-263	1
